HSD17B inhib = qHTS Assay for Inhibitors of HSD17B4, hydroxysteroid (17-beta) dehydrogenase 4; recombinant HSD17B10, NADH fluorescence kinetic; many of its hits are not listed in these tables; 3-hydroxyacyl-CoA dehydrogenase type-2 (Homo sapiens), Q99714; Potency, µM (titrated, usually from 57.1 µM), for the others: at the highest dose activity change, negative = inhibition, hits mostly inhibitors; 75,000 tested, 7.6% active; active = well fitted inhibition curve with a large enough effect; inconclusive = small, poorly fitted or top-dose-only effect; inactive = no such curve, though single readings can be large or run the other way;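 note: the protocol describes HADH2 (HSD17B10) and not the HSD17B4 of the title; nearly all actives have a fitted effect of over 70% in size; most hits overshoot -100% by far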
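20 nM HADH2, pH 9.0 Tris/Tween; cpd preinc 15 min RT; start w/ 1 mM NAD+ + 90 uM b-hydroxybutyryl-CoA; kinetic fluor ex360/em450 q30s x 4 min; delta last-first.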
* marks the source's active call; other numbers are inactive results; ? = inconclusive; [ ] = another dose, or the depositor's remark. % is set by controls: 0 for no effect and ±100 for the full control effect; potency is the fitted concentration of half-maximal effect. Some of the compounds tested. The share of hits here may be higher or lower than overall.

SMILES	HSD17B inhib
O=c1c2c3n(c(=O)nc2[nH]n1-c1ccccc1)CCCCC3	3%
Cc1cc(C)nc(SCC(=O)Nc2ccc(S(=O)(=O)Nc3nccs3)cc2)n1	0%
CC(CC(=O)NC1CCSC1=O)c1ccccc1 (stereo unspecified)	1%
Cc1cc(OCc2ccc(F)cc2)nc(-c2ccccc2O)n1	-21%
COc1cccc(-c2nnc(NC(=O)c3ccc(S(=O)(=O)N(CC(C)C)CC(C)C)cc3)o2)c1	-6%
COc1cccc(N(C(=O)c2ccco2)C(C(=O)NC2CCCC2)c2ccc(N(C)C)cc2)c1 (stereo unspecified)	-1%
COc1cccc(NC(=O)CSc2ccc3nnc(-c4ccncc4)n3n2)c1	10%
Nc1sc2c(c1C(=O)NC1CCS(=O)(=O)C1)CCC2 (stereo unspecified)	-15%
COCCCn1c(SCC(N)=O)nnc1-c1ccccc1	4%
O=C1c2oc3ccccc3c(=O)c2C(c2cccc(O)c2)N1c1ccccn1 (stereo unspecified)	-1%
CCOC(=O)N1CCN(C(=O)Nc2ccc(Cl)cc2)CC1	16%
C=C1CCC2C(CC2(C)C)C(=O)CCC1O (stereo unspecified)	-1%
O=C(O)CCC(=O)OC[C@@H](NC(=O)C(Cl)Cl)C(O)c1ccc([N+](=O)[O-])cc1 (stereo partly specified)	3%
O=C(Oc1ccccc1)c1cccc(COC(=O)c2cnccn2)c1	-2%
CCOc1ncccc1C(=O)OCc1cn2cc(Cl)ccc2n1	4%
Cc1cccc2cc(CN(Cc3ccccc3)C(=O)N(C)C)c(=O)[nH]c12	0%
CCOc1cc(-c2c(C#N)c(N)nc3c2CCCC3C)ccc1O (stereo unspecified)	-17%
Cc1nc2cccc(C(=O)NC3CCCCC3)c2o1	-2%
CN(C)c1cc(-c2cccc(NS(C)(=O)=O)c2)ncn1	25µM*
COc1cc(-c2nn3c(-c4cccc(C)c4)nnc3s2)cc(OC)c1OC	-3%
CCn1cc(C(=O)NCc2cccs2)c(=O)c2ccc(C)nc21	7%
COc1ccc(C2=Nn3c(nnc3-c3ccccc3OC)SC2)cc1OC	0%
COc1ccc(-c2cn3cccnc3n2)cc1NC(=O)CC(C)C	25µM*
Cc1ccc(C)c(Cn2nnc3c(=O)[nH]c(C(=O)NCc4ccco4)nc32)c1	?
N#CCCn1c(-c2nonc2NC(=O)c2ccccc2Cl)nc2ccccc21	0%
CN1C(=O)c2oc3ccc(Br)cc3c(=O)c2C1c1ccncc1 (stereo unspecified)	0%
COc1cc2c(cc1OC)C(COc1ccc3c(C)cc(=O)oc3c1)N(C(=O)c1ccco1)CC2 (stereo unspecified)	-25%
CS(=O)(=O)Nc1ccc2c(c1)C(=O)OC2	7%
COc1cccc(-c2noc(-c3cccs3)n2)c1	?
Cc1cnc(CNc2nc(-c3cccc(NS(C)(=O)=O)c3)nc3ccccc23)cn1	10%
CN(C)CCN(Cc1ccccc1)c1ccnc(N(C)C)c1C#N	-4%
COC(=O)N1CCC2(CC1)CN(C(=O)Nc1ccccc1)C2	2%
O=S1(=O)NC(=NC2CCCCCC2)c2ccccc21	6%
COc1cc(NC(=O)CSc2nnc3n2C(C)(C)Cc2ccccc2-3)cc(OC)c1	4%
CCOc1cc(S(=O)(=O)NC2CCCC2)ccc1Cl	0%
COc1ccc(NC(=O)CCCC2=NS(=O)(=O)c3ccccc3N2)cc1	1%
O=C(OCN1C(=O)c2ccccc2C1=O)C1CCCCC1	5%
O=C(c1ccco1)N(Cc1cccs1)C1CCS(=O)(=O)C1 (stereo unspecified)	9%
COc1ccc(NC(=O)Nc2ccc3nccnc3c2)cc1	-9%
CCOC(=O)C1C(c2ccc3c(c2)OCO3)NC(=O)NC1(O)C(F)(F)F (stereo unspecified)	4%
O=C(CN1CCOCC1)OCCCC1CCCCC1	-4%
Cn1c(SCC(=O)Nc2nccs2)nnc1-c1ccncc1	-4%
CC(C)Sc1nc(NCc2ccco2)c2c3c(sc2n1)COC(C)(C)C3	-4%
O=C(CSc1nc2ccccc2s1)N1CCOCC1	?
CCC1=C2CC[C@H]3C(=O)N(c4ccccc4)C(=O)[C@H]3[C@H]2[C@@]2(Cc3ccccc3)C(=NCCOC)OC(=O)N2C1=O	3%
CCOc1ccc(-n2c(C)nc3c(cnn3-c3ccc(Cl)cc3)c2=O)cc1	9%
O=S(O)O.O=S(O)O.[Co].[NH2-].[NH2-].[NH2-].[NH2-]	-2%[11.4 µM]
CCOC(=O)c1nc(N)c(=O)n(-c2ccccc2)n1	5%

Reprinted from the part before: five entries, then new ones.
SMILES	HSD17B inhib
O=C(CSc1nc2ccccc2s1)N1CCOCC1	?
CCC1=C2CC[C@H]3C(=O)N(c4ccccc4)C(=O)[C@H]3[C@H]2[C@@]2(Cc3ccccc3)C(=NCCOC)OC(=O)N2C1=O	3%
CCOc1ccc(-n2c(C)nc3c(cnn3-c3ccc(Cl)cc3)c2=O)cc1	9%
O=S(O)O.O=S(O)O.[Co].[NH2-].[NH2-].[NH2-].[NH2-]	-2%[11.4 µM]
CCOC(=O)c1nc(N)c(=O)n(-c2ccccc2)n1	5%
O=C(NC1CCCC1)C(c1ccco1)N(Cc1ccccc1)C(=O)c1csnn1 (stereo unspecified)	-6%
Oc1ccc(CN2CCCc3ccccc32)c2cccnc12	1%
CS(=O)(=O)N1CCCC(C(=O)NCCCN2CCC(Cc3ccccc3)CC2)C1 (stereo unspecified)	0%
CCOc1ccc(Nc2c3c(nc4ncnn24)CC(C)CC3)cc1 (stereo unspecified)	6%
N=C(N)SCc1cccc2c(=O)cc(-c3ccccc3)oc12	2%[11.4 µM]
C[C@H](NC(=O)/C(C#N)=C/c1ccc(O)c(O)c1)c1ccccc1	?
O=C(c1ccncc1)N1CCC2(CC1)CN(Cc1cc(C(F)(F)F)cc(C(F)(F)F)c1)C2	7%
CSc1nnc(NC(=O)C2CCCCC2)s1	-2%
Cn1nc(CC(=O)Nc2ccc3c(c2)CCC3)c2ccccc2c1=O	16%
CCC(NC(=O)c1ccccc1O)c1ccccc1 (stereo unspecified)	?
CCC(=O)Nc1cccc(NC(=O)CSc2nnnn2C)c1	8%
Cc1ccc(Cl)cc1N1CCN(S(=O)(=O)c2c(C)[nH]c(=O)[nH]c2=O)CC1	4%
N#C/C(=C(\O)c1ccco1)c1ccccn1	4%
CC(=O)Nc1cc2nn(-c3ccccc3)nc2cc1Cl	13µM*
COc1cc(C2N(c3cccc(Cl)c3)C(=O)C3CCCN32)cc(OC)c1OC (stereo unspecified)	4%
Cc1ccc(-n2c(SCC3CCCCO3)nnc2-c2ccco2)cc1 (stereo unspecified)	-8%
O=C(CCCN1CCC(O)(c2cccc(C(F)(F)F)c2)CC1)c1ccc(F)cc1	-2%
CC(C)NC(=O)N1CCCC2(CCN(C(=O)c3cccn3C)CC2)C1	-3%
CS(=O)(=O)N1CCC(C(=O)Nc2c(F)cccc2F)CC1	7%
CCCCC	-1%
COc1ccc(OC)c(CNC(=O)C2CCCN(c3nc4ccccc4o3)C2)c1 (stereo unspecified)	2%
Cc1ccc(NC(=O)CN(C)C(=O)CN2C(=O)NC(C)(c3ccccc3)C2=O)cc1 (stereo unspecified)	6%
CCOC(=O)CCNC(=O)c1ccccc1Br	9%
COC(=O)Cc1c(C)nc2nc(-c3ccccc3)[nH]n2c1=O	-6%

In the list so far, these contain an NH in an aromatic ring.
SMILES	HSD17B inhib
O=c1c2c3n(c(=O)nc2[nH]n1-c1ccccc1)CCCCC3	3%
Cc1cccc2cc(CN(Cc3ccccc3)C(=O)N(C)C)c(=O)[nH]c12	0%
Cc1ccc(C)c(Cn2nnc3c(=O)[nH]c(C(=O)NCc4ccco4)nc32)c1	?
Cc1ccc(Cl)cc1N1CCN(S(=O)(=O)c2c(C)[nH]c(=O)[nH]c2=O)CC1	4%
COC(=O)Cc1c(C)nc2nc(-c3ccccc3)[nH]n2c1=O	-6%

Later entries
SMILES	HSD17B inhib
O=C(COC(=O)c1ccccc1O)Nc1ccc(OC(F)F)cc1	?
O=C(Cn1c(=O)[nH]n(-c2ccccc2)c1=O)N1CCCc2ccccc21	6%
CC(=O)N[C@@H](c1ccccc1)[C@]1(C)C[C@H]1[C@@H](C)C(=O)Nc1ccc2ccccc2c1	-2%
CCOC(=O)N1CCN(C(=O)CSc2nnc(-c3cccc(Cl)c3)o2)CC1	2%
Cc1[nH]n2c(=O)cc(C(C)(C)C)nc2c1-c1ccccc1	25µM*
COc1cc(CN2CCN(S(=O)(=O)c3ccc(NC(C)=O)cc3)CC2)cc(OC)c1O	-6%
Cc1nn2c3ccccc3nc2n(Cc2ccccc2)c1=O	10%
CCC(C)(C)NC(=O)C(c1cccn1C)N(C(=O)Cn1nnc2ccccc21)c1ccc(OC)cc1 (stereo unspecified)	9%
Cc1cc(F)ccc1NCc1ccncc1	-3%
COc1cc(OC)c(NC(=O)Nc2ccc(OC)c(OC)c2)cc1Cl	-5%
COc1ccc(-c2noc(COc3ccc4ccccc4c3Br)n2)cc1OC	6%
COc1ccc(NC(=O)CSc2nnc(Cn3c(=O)sc4ccccc43)n2C)c(OC)c1	-27%
CC(C)OCCCNC(=O)c1ccc(NC(=O)C2CCCO2)cc1 (stereo unspecified)	0%
Cc1nc2ccccn2c1C(=O)NC1CCCCC1	?
FC(F)(F)c1ccccc1-c1cc(NCCN2CCOCC2)ncn1	5%
C(/C=C\c1ccccc1)=Nc1ccc2c(c1)Cc1ccccc1-2	-5%[11.4 µM]
Cc1ccc(NC(=O)C2CCCN2C(=O)Oc2ccccc2)cc1 (stereo unspecified)	16%
C[C@@H](CN(C)C)CN1c2ccccc2Sc2ccccc21	-2%[25.6 µM]
CSc1nc(C)c(Cl)c(C)c1C#N	-8%
CC(C)CN(CC#N)CC(C)C	3%[11.4 µM]
O=C(NCC(c1cccnc1)N1CCOCC1)c1cccs1 (stereo unspecified)	3%
CC(C)CCNC(=O)CCn1nc(-c2ccccc2)ccc1=O	?
COc1cccc(-n2c(SCC(=O)Nc3cc(C)on3)nc3ccccc3c2=O)c1	0%
O=c1ccccn1Cc1ccccc1F	-4%
CCOc1cc(/C=N/n2cnnc2)cc(Br)c1O	?
O=C(Nc1cccnc1N1CCOCC1)c1ccco1	0%
COC(=O)C1=C(C)N=c2s/c(=C3\C(=O)Nc4ccccc43)c(=O)n2C1c1ccccc1 (stereo unspecified)	32µM*
Cc1occc1C(=O)NC1CCCc2ccccc21 (stereo unspecified)	16µM*
COc1cc2c(=O)n(CC3CCCO3)c(=O)n(CC(=O)Nc3ccc(F)cc3F)c2cc1OC (stereo unspecified)	32µM*
Cc1ccc(Nc2ncnc3nc[nH]c23)cc1Cl	?
CCc1cc2c(nc1CC)CCN(CC/C(C)=N/OCC[C@@H]1C=C[C@H](OC(C)=O)[C@H](COC(C)=O)O1)C2	4%[11.4 µM]
CCCC(c1nnnn1Cc1ccccc1)N1CCN(c2ccccc2OC)CC1 (stereo unspecified)	-4%
CCCCn1c(SCC(=O)Nc2cc(C)on2)nnc1-c1cccnc1	3%
COC(=O)[C@@]1(Cc2ccccc2)[C@H]2c3cc(C(=O)N(C)C)n(Cc4c(CO)[nH]cc(C)c4=O)c3C[C@H]2CN1C(=O)c1ccccc1	-12%
O=C1[C@@H]2[C@H]3[C@H](O)[C@H](O)C/C(=N/OC[C@@H](O)COCc4ccco4)[C@@H]3CC[C@H]2C(=O)N1c1ccc(F)cc1F	8%[11.4 µM]
Cc1ccc(F)cc1NC(=O)c1cccc(N(C)C)c1	0%
COc1ccc(C(=O)N(Cc2ccc(N(C)C)cc2)C2CCS(=O)(=O)C2)cc1 (stereo unspecified)	-24%
O=C(Nc1cccc(F)c1)Nc1ccccn1	-2%
Cc1nn(C)c(C)c1Sc1ccc(Br)cc1	5%
CCCn1c(SCC(=O)O)nc2ccccc21	7%
CCOC(=O)N1CCN(Cc2ccccn2)CC1	1%
CCn1c2ccccc2c2nnc(SCC(=O)c3ccccc3)nc21	8%
CO[C@H]1COC(=O)[C@@H](CCSC)NC(=O)C/C=C\[C@@H](C)COC(=O)[C@@H](OCc2ccccc2)/C=C\[C@@H]1C	0%[11.4 µM]
Cc1ccccc1-c1noc(-c2ccccc2C(=O)N2CCCC2)n1	2%
Cc1ccc(C2C(C#N)=C(N)Oc3c2sc2ccccc32)o1 (stereo unspecified)	?
CC(C)(C)NC(=O)Cn1nnc(-c2ccc(S(C)(=O)=O)cc2)n1	-5%
C/C(Cl)=C/Cn1c(N2CCCC2)nc2c1c(=O)n(C)c(=O)n2C	2%
CC(C)CCSc1nc(N2CCOCC2)c2c(c1C#N)CC(C)(C)OC2	?

Some of the entries above in a different format.
compound,HSD17B inhib
Cc1ccc(Nc2ncnc3nc[nH]c23)cc1Cl,?
CCc1cc2c(nc1CC)CCN(CC/C(C)=N/OCC[C@@H]1C=C[C@H](OC(C)=O)[C@H](COC(C)=O)O1)C2,4%[11.4 µM]
CCCC(c1nnnn1Cc1ccccc1)N1CCN(c2ccccc2OC)CC1 (stereo unspecified),-4%

(more compounds)
SMILES	HSD17B inhib
CC(=NCC(=O)O)c1ccccc1	-3%[11.4 µM]
O=C(Nc1scc(-c2ccc(F)cc2)c1C(=O)O)c1ccco1	-3%
CCOC(=O)N1CCN(CC(=O)Nc2c(C(=O)OC)[nH]c3ccc(Cl)cc23)CC1	25µM*
CC(=O)Nc1nc(C)c(Oc2ccccc2)c(=O)[nH]1	12%
O=C(CCN1CCCC1)Nc1cccc(Br)c1	3%
CN(C)CCNC(=O)c1ccc(-n2c(=O)c(=O)[nH]c3ccccc32)cc1	5%
CCCCc1ccc(NC(=O)COCC)cc1	-1%
COc1cccc(C2c3c(oc4ccc(F)cc4c3=O)C(=O)N2CCCN2CCOCC2)c1 (stereo unspecified)	-1%

Screening results deposited in PubChem by National Center for Advancing Translational Sciences (NCATS).
